Source: PubChem BioAssay
HCMV NEC inh: disrupts HCMV UL50-UL53 complex binding. HTRF UL50-UL53 interaction, normalized percent inhibition. inhibition, % (no concentration beside the values). actives 0.15% (n = 190,000). AID 1918969;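 active means both replicates at 50% or more, plus weaker picks with an unusually low signal ratio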;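 further: stock transfer was 100 nL into about 20 µL; 0% = negative control wells and 100% = wells with untagged competitor protein; inactives centre near -12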
GIV-Gai inh: blocks GIV peptide binding to rat Galpha-i3; Galpha-i3/FITC-GIV peptide fluorescence polarization, 90 min; stronger effect = lower value; scaled: aluminum fluoride 0%, vehicle 100%; percent of control (FP), % (concentration not given with the values); actives 0.42% (n = 210,000); AID 1224905;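 active means replicate mean at 85% of control or lower, very high polarization wells dropped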;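 further: wells of about 15 µL received 100 nL stock; the first replicate is given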
Target sequence (P08753 whole entry, looked up): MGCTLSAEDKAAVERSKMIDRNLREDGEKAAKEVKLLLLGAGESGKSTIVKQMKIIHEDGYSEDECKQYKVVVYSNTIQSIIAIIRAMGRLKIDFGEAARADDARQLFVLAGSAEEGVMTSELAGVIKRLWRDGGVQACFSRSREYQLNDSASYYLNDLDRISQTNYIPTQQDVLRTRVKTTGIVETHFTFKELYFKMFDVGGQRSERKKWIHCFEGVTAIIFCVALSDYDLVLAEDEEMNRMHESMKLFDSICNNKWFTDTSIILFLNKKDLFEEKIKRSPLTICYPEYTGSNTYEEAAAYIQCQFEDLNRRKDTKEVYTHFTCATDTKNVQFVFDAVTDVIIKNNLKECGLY
Sa growth 42C: S. aureus growth inhibition; S. aureus RN4220 growth, OD600, 20 h, 42 °C; stronger effect = lower value; relative growth, % (concentration not given with the values); actives 0.53% (n = 170,000); AID 720641;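 active means growth at 42 °C up to 50% and 20 or more points under that at 30 °C, or under 10% at both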;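 further: 300 nL library stock went into each well; scaled to the means of positive and negative controls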
Sa growth 42C second temp: second read-out of Sa growth 42C, no call of its own (marks repeat the call); relative growth, %; measured here: growth at 30 °C;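 optical density after 20 h as mean of two plates; 100% = untreated growth and lower means inhibition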
An asterisk follows results filed as active; nt = no result given.

1. O=C(Nc1cccc(Cl)c1)Nc1ccccc1N1CCCCC1
2. CCCn1c2ccccc2c2nc3cc(OC)c(OC)cc3nc21
3. CSc1nc(-c2cccnc2)nc(-c2ccc(OC(F)(F)F)cc2)c1C#N
4. Cc1c(Br)cc(C(=O)N2CCCC2)c(C)c1C
5. COc1ccc(C2CC(=O)C3=C(C2)Nc2ncnn2C3c2cccc(OC)c2OC)cc1 (stereo unspecified)
6. Cc1sc2nc(CSC(C)C(=O)Nc3ccc(N4CCN(C)CC4)cc3)[nH]c(=O)c2c1C (stereo unspecified)
7. Cn1c(=O)n(C)c2cc(Sc3ccccc3)c(NS(=O)(=O)c3ccc(Br)cc3)cc21
8. Cc1ccc(NC(=O)OC2COC3C(OC(=O)Nc4ccc(C)cc4)COC23)cc1 (stereo unspecified)

Screen / compound no. | 1 | 2 | 3 | 4 | 5 | 6 | 7 | 8
Sa growth 42C second temp | 77 | nt | 94 | 81 | nt | 95 | nt | 93
GIV-Gai inh | 101 | 105 | 96 | 99 | 106 | nt | 111 | nt
Sa growth 42C | 76 | nt | 95 | 88 | nt | 84 | nt | 96
HCMV NEC inh | 0 | -24 | -16 | -33 | 6 | 4 | -16 | -15

9. Cc1nn(-c2ccccc2)c2[nH]c(=O)c(CNCc3cccnc3)cc12
10. Cc1c(C(=O)N2CCN(c3ccc(Cl)cc3)CC2)oc2c1-c1[nH]ncc1CC2
11. CCN(CC)C(=O)Cn1c(=O)n(-c2ccccc2)c(=O)c2sccc21
12. CCc1ccc(OCC(=O)Nc2ccc3c(c2)c2ccccc2n3CC)c(Br)c1
13. O=C(NCCC1=CCCCC1)c1c(O)nc2ccccn2c1=O
14. Cc1ccc(S(=O)(=O)C(CNS(=O)(=O)c2ccc(F)c(C(F)(F)F)c2)c2ccco2)cc1 (stereo unspecified)
15. Cc1c(C(=O)N2CCCC2)oc2c1-c1nn(CC(=O)NCc3cccc(F)c3)cc1CC2
16. CCOc1cc(C2C(C#N)=C(N)Oc3n[nH]c(C)c32)ccc1OC(=O)N1CCOCC1 (stereo unspecified)

Screen / compound no. | 9 | 10 | 11 | 12 | 13 | 14 | 15 | 16
Sa growth 42C second temp | 86 | 62 | 86 | 86 | 58 | 89 | 82 | nt
GIV-Gai inh | 95 | 106 | 105 | 108 | 97 | 97 | 106 | 104
Sa growth 42C | 97 | 79 | 93 | 81 | 72 | 137 | 107 | nt
HCMV NEC inh | -3 | nt | -2 | 18 | -21 | nt | nt | -23

17. CS(=O)(=O)c1cccc(C(=O)Oc2ccccc2)c1
18. CCC(=O)Oc1c(S(=O)(=O)c2ccccc2)c(C)nn1C(C)(C)C
19. CCOc1ccccc1NC(=O)Cn1nnc(C(=O)Nc2ccc(C)c(C)c2)c1N
20. O=C(Nc1cc(C(=O)N2CCOCC2)ccc1N1CC2CC(C1)c1cccc(=O)n1C2)c1ccc(Br)o1 (stereo unspecified)
21. CCCCOc1ccc(OCCCC)c2c1NC1(N2)C(=O)Nc2ccc([N+](=O)[O-])cc21
22. O=c1cc(CN2CCN(c3ccc(F)cc3)CC2)nc2nc(-c3ccccc3)[nH]n12
23. COc1cccc(N2CCN(C(=O)C3CCN(S(=O)(=O)c4cn(C)cn4)CC3)CC2)c1
24. CC1CCc2nc(NC(=S)NCc3ccco3)sc2C1 (stereo unspecified)

Screen / compound no. | 17 | 18 | 19 | 20 | 21 | 22 | 23 | 24
Sa growth 42C second temp | 83 | 90 | 89 | 99 | nt | nt | 92 | 82
GIV-Gai inh | nt | 102 | 105 | 112 | 103 | 101 | 109 | 106
Sa growth 42C | 101 | 103 | 95 | 94 | nt | nt | 107 | 114
HCMV NEC inh | -15 | nt | -19 | 5 | -2 | 12 | nt | -1

25. CC(=O)NC(Cc1ccc(F)cc1)C(=O)OCc1ccccc1 (stereo unspecified)
26. CC1(C)CC(N2CCC(O)(c3ccccc3)C(C(=O)c3ccccc3)C2)CC(C)(C)N1 (stereo unspecified)
27. CCCc1cc(=O)[nH]c(SCC(=O)N2CCN(S(=O)(=O)c3ccccc3)CC2)n1
28. O=C(NCCc1cnc[nH]1)c1nc(Nc2ccccc2)c2ccccc2n1
29. COc1ccc(-c2cc(C(F)(F)F)n3nc(C(=O)Nc4cc(C(F)(F)F)ccc4Cl)cc3n2)cc1OC
30. COCCOC(=O)C1=C(C)NC2=C(C(=O)CC(c3ccc(Cl)cc3)C2)C1c1cc(Cl)c(O)c(OC)c1 (stereo unspecified)
31. CC1CCC(NC(=O)C2(C)Cn3c(cc4occc43)C(=O)N2Cc2ccccc2)CC1 (stereo unspecified)
32. COc1ccc(NC(=O)C2CCN(S(=O)(=O)c3cn(C)cn3)CC2)cc1Cl

Screen / compound no. | 25 | 26 | 27 | 28 | 29 | 30 | 31 | 32
Sa growth 42C second temp | 80 | 87 | 99 | nt | 94 | nt | nt | 88
GIV-Gai inh | nt | nt | nt | 103 | 104 | 105 | 102 | 98
Sa growth 42C | 108 | 95 | 90 | nt | 90 | nt | nt | 103
HCMV NEC inh | -8 | -10 | -24 | -31 | 9 | -11 | -20 | nt

33. Cc1ccc(-c2c(NCCC3=CCCCC3)c(=O)c2=O)cc1
34. Clc1ccc(-c2noc(CN3CCC(Cc4ccccc4)CC3)n2)cc1
35. O=C(NCCO)c1ccn[nH]1
36. O=C(COc1ccc(NS(=O)(=O)c2cccc3cccc(Cl)c23)cc1)N1CCOCC1
37. CC(CC(=O)NCc1cccs1)CC1=NS(=O)(=O)c2ccccc2N1 (stereo unspecified)
38. CSc1oc(-c2cccs2)nc1S(=O)(=O)c1ccc(Br)cc1
39. Cc1ccc(-n2c(=O)c3c(C)c(C(=O)N(C)C)sc3n(CC(=O)C(C)(C)C)c2=O)cc1C
40. Cc1cc(NC(=O)c2cc3c(CO)cnc(C)c3oc2=N)ccc1Br

Screen / compound no. | 33 | 34 | 35 | 36 | 37 | 38 | 39 | 40
Sa growth 42C second temp | nt | nt | 86 | 76 | 87 | 90 | 92 | 94
GIV-Gai inh | 116 | 98 | 101 | nt | 99 | 106 | 100 | 108
Sa growth 42C | nt | nt | 101 | 92 | 84 | 82 | 103 | 81
HCMV NEC inh | -6 | 1 | 2 | -62 | -25 | -9 | nt | -38

41. CCOC(=O)c1ccc(N2CCN(c3ccccc3OC)CC2)c(NC(=O)Nc2ccc(CC)cc2)c1
42. Cc1ccc2nc(N3CC(=O)Nc4ccccc43)nc(-c3ccccc3)c2c1
43. Cc1ccc2c(=O)cc(C(=O)Nc3ccc(S(=O)(=O)Nc4nc(C)cc(C)n4)cc3)oc2c1
44. COc1ccc(CNC(C)C(=O)NCc2ccc3c(c2)OCO3)cc1OC (stereo unspecified)
45. C=CCNc1nc(C(=O)OC2CCCCC2=O)cs1 (stereo unspecified)
46. Cc1ccc2c(c1)-c1c(c(C(=O)N3CCN(c4cc(C)ccc4C)CC3)nn1C)CS2
47. COc1ccc(CCNC(=O)c2ccc3c(c2)N(Cc2cccc(Cl)c2)C(=O)CS3)cc1OC
48. COc1ccc(C)cc1NC(=O)c1nc2ccccc2nc1OC

Screen / compound no. | 41 | 42 | 43 | 44 | 45 | 46 | 47 | 48
Sa growth 42C second temp | 95 | nt | 100 | 88 | 98 | 88 | 72 | nt
GIV-Gai inh | 106 | 108 | 109 | nt | nt | 42* | 114 | 106
Sa growth 42C | 107 | nt | 102 | 100 | 97 | 93 | 100 | nt
HCMV NEC inh | nt | -1 | -76 | -25 | -8 | nt | 0 | -45

49. CCc1cccc(CC)c1NC(=O)/C=C/C(=O)O
50. CCn1c(C(=O)OC)cc2occc21
51. C=CCSc1nnc(-c2ccc(Cl)cc2)n1CC(OC)OC
52. CCOc1ccc(NC(=O)c2ccc3c(=O)n4c(nc3c2)CCCCC4)cc1
53. CCn1cc(P(=Nc2ccc(C(=O)O)cc2)(N2CCOCC2)N2CCOCC2)c2ccccc21
54. CCOC(=O)CSc1nnc(-c2cccc(C)c2[N+](=O)[O-])n1-c1ccccc1
55. CNS(=O)(=O)c1cccc(C(=O)NCC(c2ccco2)N(C)C)c1 (stereo unspecified)
56. Cc1ccc2c(c1)-c1onc(C(=O)NC3CCCCC3)c1CO2

Screen / compound no. | 49 | 50 | 51 | 52 | 53 | 54 | 55 | 56
Sa growth 42C second temp | 80 | 89 | 102 | 96 | 102 | nt | 97 | 83
GIV-Gai inh | 104 | 100 | 103 | 108 | nt | 106 | nt | 104
Sa growth 42C | 96 | 96 | 100 | 105 | 119 | nt | 81 | 87
HCMV NEC inh | -3 | 2 | 8 | 17 | -1 | -12 | -14 | nt

57. COc1cccc(OC)c1C(=O)c1cc[n+](C)cc1
58. COc1ccc(-c2cc(-c3ccco3)c(C#N)c(N)n2)cc1
59. O=C(CCN(CCCN1CCCC1)C(=O)c1ccc(F)cc1)N1CCNCC1
60. COc1ccc(CCNc2cc(C)nc3c(-c4ccc(OC)c(OC)c4)c(C)nn23)c(OC)c1
61. CCOCC(=O)Nc1cc(C)nn1-c1ncnc2c1cnn2-c1ccc(F)cc1
62. CCCc1cc(=O)n(CC(=O)N2CCCc3ccccc32)c(-n2nc(C)cc2C)n1
63. O=C(CCc1nnc2n(Cc3ccccc3Cl)c(=O)c3ccccc3n12)Nc1ccc(F)c(F)c1
64. Cc1ccc(-c2csc(=Nc3c(C)n(C)n(-c4ccccc4)c3=O)n2CCO)cc1

Screen / compound no. | 57 | 58 | 59 | 60 | 61 | 62 | 63 | 64
Sa growth 42C second temp | 88 | 73 | nt | 54 | nt | 75 | 85 | 87
GIV-Gai inh | 108 | nt | 102 | 99 | 102 | 110 | 103 | 103
Sa growth 42C | 94 | 105 | nt | 62 | nt | 88 | 105 | 103
HCMV NEC inh | -110 | -7 | -35 | nt | -6 | 31 | -28 | -15

65. O=C(Cn1cc(SCc2ccc(F)cc2)c2ccccc21)N1CCCCCC1
66. Cc1cc(Cl)ccc1NC(=O)C1CCN(c2nnc(-n3c(C)ccc3C)s2)CC1
67. CC(NS(=O)(=O)c1ccc2c(c1)c(=O)n(C)c(=O)n2C)C(=O)N1CCN(c2ccc(Cl)cc2)CC1 (stereo unspecified)
68. CCOc1ccccc1C(=O)N1CCN(CCc2ccccn2)CC1
69. CCOC(=O)/C(C#N)=C/c1cc(Br)cs1
70. CCOC(=O)c1cnc(SCC(=O)OCC(=O)Nc2sc3c(c2C#N)CCC3)nc1N
71. CCn1cc2c(n1)-c1c(oc(C(=O)Nc3cccc(C(F)(F)F)c3)c1C)CC2
72. COc1ccc2c(C)c(CCC(=O)N3CCCCC3)c(=O)oc2c1

Screen / compound no. | 65 | 66 | 67 | 68 | 69 | 70 | 71 | 72
Sa growth 42C second temp | 95 | 73 | 87 | 82 | 80 | 98 | 101 | 91
GIV-Gai inh | 106 | 109 | nt | 95 | 105 | nt | 103 | 113
Sa growth 42C | 115 | 99 | 138 | 100 | 119 | 93 | 107 | 109
HCMV NEC inh | nt | -14 | 3 | -25 | -43 | 3 | -13 | -20

Five entries out of the list, ordered by molecular weight, highest first:
67. CC(NS(=O)(=O)c1ccc2c(c1)c(=O)n(C)c(=O)n2C)C(=O)N1CCN(c2ccc(Cl)cc2)CC1 (stereo unspecified)
66. Cc1cc(Cl)ccc1NC(=O)C1CCN(c2nnc(-n3c(C)ccc3C)s2)CC1
65. O=C(Cn1cc(SCc2ccc(F)cc2)c2ccccc21)N1CCCCCC1
72. COc1ccc2c(C)c(CCC(=O)N3CCCCC3)c(=O)oc2c1
69. CCOC(=O)/C(C#N)=C/c1cc(Br)cs1

Screen / compound no. | 67 | 66 | 65 | 72 | 69
Sa growth 42C second temp | 87 | 73 | 95 | 91 | 80
GIV-Gai inh | nt | 109 | 106 | 113 | 105
Sa growth 42C | 138 | 99 | 115 | 109 | 119
HCMV NEC inh | 3 | -14 | nt | -20 | -43

Later entries:
73. Cc1ccc(S(=O)(=O)NCCc2sc(-c3cccc(F)c3)nc2C)c(C)c1
74. O=c1ccc2cc(S(=O)(=O)NCCN3CCN(c4cccc(Cl)c4)CC3)ccc2[nH]1
75. CCC(C)n1nnc2cc(S(=O)(=O)N3CCC(C(=O)Nc4cccc(OC)c4)CC3)ccc21 (stereo unspecified)
76. CC(C)C(=O)OCC(=O)Nc1ccc(I)cc1
77. Cc1oc(-c2ccc(OC(C)C)cc2)nc1Cn1nc(C)c2c(C)onc2c1=O
78. CN1CCN(c2oc(-c3ccc(S(=O)(=O)N(C)C)cc3)nc2C#N)CC1
79. COCCN=c1scc(C)n1/N=C/C1CC2C=CC1C2 (stereo unspecified)
80. O=C(NC1CC(=O)N(c2ccc(F)cc2)C1)C(c1ccccc1)c1ccccc1 (stereo unspecified)

Screen / compound no. | 73 | 74 | 75 | 76 | 77 | 78 | 79 | 80
Sa growth 42C second temp | nt | 91 | nt | 80 | nt | nt | 90 | 97
GIV-Gai inh | 106 | 106 | 107 | nt | 110 | 98 | nt | 101
Sa growth 42C | nt | 103 | nt | 86 | nt | nt | 81 | 111
HCMV NEC inh | 8 | nt | -17 | -31 | -34 | -58 | 6 | nt

81. COCCn1c(SCC(N)=O)nc2c(c1=O)SC(C)C2 (stereo unspecified)
82. CN(C)c1ccc(C(=O)N2CCN(C(c3ccccc3)c3ccccc3)CC2)cc1
83. O=C1OC(C(=O)O)Cc2cc(Cl)ccc21 (stereo unspecified)
84. Cc1oc2ccc(OCc3ccccc3)cc2c1C(=O)Nc1ccc2c(c1)OCO2

Screen / compound no. | 81 | 82 | 83 | 84
Sa growth 42C second temp | 86 | 81 | nt | nt
GIV-Gai inh | 106 | 109 | 99 | 112
Sa growth 42C | 109 | 101 | nt | nt
HCMV NEC inh | -11 | 22 | -2 | 3

Not a hit list. Share with any hit: about 0.83%.
